Assay outcomes from PubChem.
GLA inh pH 4.5: alpha-galactosidase A (human) inhibition, pH 4.5; purified enzyme, 4-MU-alpha-Gal fluorescence, pH 4.5; activity change, negative = inhibition, % at 105 µM; 230,000 tested, under 10 active; inconclusive = small, poorly fitted or top-dose-only inhibition, or a rising curve; inactive = flat fitted curve, though single readings scatter; no compound was filed as active;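 also: 0% = full activity with enzyme and -100% = basal without enzyme; dose as in the result columns while the protocol names 77 µM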
Target sequence (P06280 whole entry, looked up): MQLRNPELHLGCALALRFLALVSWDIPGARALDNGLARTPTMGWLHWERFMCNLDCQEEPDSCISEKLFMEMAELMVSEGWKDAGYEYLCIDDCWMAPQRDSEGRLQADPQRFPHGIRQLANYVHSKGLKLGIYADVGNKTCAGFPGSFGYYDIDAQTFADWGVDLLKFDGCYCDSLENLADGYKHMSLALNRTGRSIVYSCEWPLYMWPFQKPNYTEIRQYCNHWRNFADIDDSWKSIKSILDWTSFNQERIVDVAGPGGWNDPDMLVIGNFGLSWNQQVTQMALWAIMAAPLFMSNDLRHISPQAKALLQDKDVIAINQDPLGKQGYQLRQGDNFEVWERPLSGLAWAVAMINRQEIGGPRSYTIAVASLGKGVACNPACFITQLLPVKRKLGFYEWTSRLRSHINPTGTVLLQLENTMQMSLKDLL
miR-21 FLuc: miR-21 reporter, rising signal; 340,000 tested, under 10 active; Potency, µM (doses to about 38.3 µM), for the others: at the top dose reporter change, positive = more light; HeLa miR-21 FLuc reporter, luciferase, 48 h; AID 2288; active = well fitted rising curve with a large enough effect; inconclusive = small, poorly fitted or top-dose-only effect; inactive = no such curve, though single readings can be large or run the other way;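 also: % of control where 0% means no effect; miR-21 action dims this reporter so a rising signal means less miR-21 action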
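Using DMEM plus 10% FBS, HeLa miR-21-FLuc cells are incubated with test compounds (final up to about 40uM) for 48 hours; firefly luciferase signal is then imaged following reagent-mediated lysis.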
An asterisk follows results filed as active; ? = inconclusive; · = no result given; & = joins results of further samples. These rows are one share of the data; rates above refer to the full screens.

The line under a structure holds: miR-21 FLuc	GLA inh pH 4.5
CCNC(=O)[C@@H]1O[C@@H](n2cnc3c(N)ncnc32)[C@H](O)[C@H]1O
    ·	-1
C[C@H](N)Cc1c[nH]c2ccc(OCc3cccs3)cc12
    ·	2
C=CCN1CC[C@@]23c4c5ccc(O)c4O[C@H]2/C(=N\N=C2/CC[C@@]4(O)[C@H]6Cc7ccc(O)c8c7[C@@]4(CCN6CC=C)[C@@H]2O8)CC[C@]3(O)[C@@H]1C5
    ·	-7
COc1cc2c(cc1OC)[C@@H]1C(=O)c3ccc(OC)c(CC=C(C)C)c3OC1CO2 (stereo partly specified)
    ·	-22
NC[C@H](CS(=O)(=O)O)c1ccc(Cl)cc1
    ·	-4
COc1cc2c(cc1OC)[C@@H]1C(=O)c3ccc4oc(C(C)C)cc4c3OC1CO2 (stereo partly specified)
    ·	3
C[C@]12N[C@@H](Cc3ccccc31)c1ccccc12
    ·	2&1&-2&4
CCC(C)C(=O)c1c(O)c(C)c2oc3c(C)c(O)c(C(=O)C(C)CC)c(O)c3c2c1O (stereo unspecified)
    ·	-5
C[C@@]12CCC(=O)C[C@@H]1CC[C@@H]1[C@@H]2CC[C@]2(C)C(=O)CC[C@@H]12
    ·	0
CC(=O)OCC(N)C(=O)c1ccccc1 (stereo unspecified)
    ·	-1
CN(C)C1C(=O)C(C(N)=O)C(=O)C2(O)C(=O)C3C(=O)c4c(O)cccc4C(C)(O)C3C(O)C12 (stereo unspecified)
    ·	-19
O=C(NC(=O)c1c(F)cccc1F)Nc1cc(Cl)c(OC(F)(F)C(F)C(F)(F)F)cc1Cl (stereo unspecified)
    ·	6
CCC[C@@](C)(COC(N)=O)COC(=O)NC(C)C
    ·	-6
CCc1cccc(C)c1N(C(=O)CCl)C(C)COC (stereo unspecified)
    ·	2
O=C(CC[N+](=O)[O-])OCC1OC(O)C(OC(=O)CC[N+](=O)[O-])[C@@H](OC(=O)CC[N+](=O)[O-])C1OC(=O)CC[N+](=O)[O-] (stereo partly specified)
    ·	-7
NC(N)=NOCCC(N)C(=O)O (stereo unspecified)
    ·	-2&-2
CP(=O)(O)C1=CCNCC1
    ·	3
O=C1C=C2C=CC3C[C@@]2(O1)C1CCCCN31 (stereo partly specified)
    ·	6
Clc1ccc(C2=CCC[C@H]3CC[C@@H]2N3)cn1
    ·	2
O=S1OCC2C(CO1)C1(Cl)C(Cl)=C(Cl)C2(Cl)C1(Cl)Cl (stereo unspecified)
    ·	-19
CCN1C[C@]2(C)CC[C@H](O)[C@@]34C5C[C@@H]6[C@@H](OC)C[C@@](O)(C5[C@H]6O)[C@@H](CC23)[C@@H]14 (stereo partly specified)
    ·	6
C/C=C(/C)C(=O)OC1CC[C@]2(C)C3CCC4[C@]5(O)CC(O)[C@]6(O)C(CN7CC(C)CCC7[C@]6(C)O)[C@]5(O)C[C@@]42O[C@]13O (stereo partly specified)
    ·	-4
CCCCCCC(C)OC(=O)COc1ccc(Cl)cc1Cl (stereo unspecified)
    ·	6
C[N+]1([O-])[C@@H]2CC[C@H]1CC(OC(=O)[C@@H](CO)c1ccccc1)C2 (stereo partly specified)
    ·	5
c1cncc([C@H]2CCCCN2)c1
    ·	0
C[C@@]12CCC(OS(=O)(=O)O)C[C@@H]1CCC1C2CC[C@]2(C)C(=O)CCC12 (stereo partly specified)
    ·	-3
C=CCN1CCC2(C)c3cc(O)ccc3C[C@H]1[C@H]2C
    ·	7
CC(N)Cc1ccc(O)cc1 (stereo unspecified)
    ·	3
CC12NC(Cc3ccccc31)c1ccccc12 (stereo unspecified)
    ·	0
CCCC[C@H]1C(=O)O[C@H](C)[C@H](NC(=O)c2cccc(NC=O)c2OC)C(=O)O[C@@H](C)[C@@H]1OC(=O)CC(C)C
    ·	-2

Some of the entries so far, as a markdown table:
| compound | miR-21 FLuc | GLA inh pH 4.5 |
| --- | --- | --- |
| CCC[C@@](C)(COC(N)=O)COC(=O)NC(C)C | · | -6 |
| CCc1cccc(C)c1N(C(=O)CCl)C(C)COC (stereo unspecified) | · | 2 |
| O=C(CC[N+](=O)[O-])OCC1OC(O)C(OC(=O)CC[N+](=O)[O-])[C@@H](OC(=O)CC[N+](=O)[O-])C1OC(=O)CC[N+](=O)[O-] (stereo partly specified) | · | -7 |
| NC(N)=NOCCC(N)C(=O)O (stereo unspecified) | · | -2&-2 |
| CP(=O)(O)C1=CCNCC1 | · | 3 |
| O=C1C=C2C=CC3C[C@@]2(O1)C1CCCCN31 (stereo partly specified) | · | 6 |
| Clc1ccc(C2=CCC[C@H]3CC[C@@H]2N3)cn1 | · | 2 |
| O=S1OCC2C(CO1)C1(Cl)C(Cl)=C(Cl)C2(Cl)C1(Cl)Cl (stereo unspecified) | · | -19 |
| CCN1C[C@]2(C)CC[C@H](O)[C@@]34C5C[C@@H]6[C@@H](OC)C[C@@](O)(C5[C@H]6O)[C@@H](CC23)[C@@H]14 (stereo partly specified) | · | 6 |
| C/C=C(/C)C(=O)OC1CC[C@]2(C)C3CCC4[C@]5(O)CC(O)[C@]6(O)C(CN7CC(C)CCC7[C@]6(C)O)[C@]5(O)C[C@@]42O[C@]13O (stereo partly specified) | · | -4 |
| CCCCCCC(C)OC(=O)COc1ccc(Cl)cc1Cl (stereo unspecified) | · | 6 |
| C[N+]1([O-])[C@@H]2CC[C@H]1CC(OC(=O)[C@@H](CO)c1ccccc1)C2 (stereo partly specified) | · | 5 |
| c1cncc([C@H]2CCCCN2)c1 | · | 0 |
| C[C@@]12CCC(OS(=O)(=O)O)C[C@@H]1CCC1C2CC[C@]2(C)C(=O)CCC12 (stereo partly specified) | · | -3 |
| C=CCN1CCC2(C)c3cc(O)ccc3C[C@H]1[C@H]2C | · | 7 |
| CC(N)Cc1ccc(O)cc1 (stereo unspecified) | · | 3 |
| CC12NC(Cc3ccccc31)c1ccccc12 (stereo unspecified) | · | 0 |
| CCCC[C@H]1C(=O)O[C@H](C)[C@H](NC(=O)c2cccc(NC=O)c2OC)C(=O)O[C@@H](C)[C@@H]1OC(=O)CC(C)C | · | -2 |

The listing continues:
The line under a structure holds: miR-21 FLuc	GLA inh pH 4.5
CCN1C[C@]2(C)CC[C@H](OC)[C@]34C5C[C@@H]6CC[C@@](O)(C5C(=O)O6)C(C13)[C@@H](OC(=O)c1ccccc1)C24
    ·	-13
COC(=O)[C@@H]1C[C@@]2(O)[C@H](O)[C@H](O)[C@H](O)C[C@H]2N1Cc1cccnc1
    ·	-13
C/C=C1/CN2CC[C@]34C(=C(C=O)[C@H]1C[C@@H]23)Nc1ccccc14
    ·	-3
CN1CC[C@@]23CCCCC2C1Cc1ccc(O)cc13 (stereo partly specified)
    ·	1
NC(N)=NCCCCCCCCCCN=C(N)N
    ·	1
CC1=C(O)C(=O)C=C2C1=CC=C1[C@]2(C)CC[C@@]2(C)C3C[C@](C)(C(=O)O)CC[C@@]3(C)CC[C@@]12C (stereo partly specified)
    ·	-3
CC(N)[C@H](O)c1ccc(O)c(O)c1 (stereo partly specified)
    ·	-5
CN1CC[C@@]2(C)c3cc(O)ccc3N(C)C12 (stereo partly specified)
    ·	-7
N#CC(C#N)=Cc1ccc([N+](=O)[O-])c(O)c1
    ·	1&-4
CN1C(=O)CCS(=O)(=O)[C@H]1c1ccc(Cl)cc1
    ·	0
COc1ccc2c(c1)[C@@]13CCCCC1[C@@H](C2)N(C)CC3 (stereo partly specified)
    ·	-4
O=C1CCO1
    ·	-5
CNC(=O)[C@H]1C[C@@H]1[C@H](NP(=O)(c1ccccc1)c1ccccc1)c1ccccc1
    ·	-5
CN(C)C1C(=O)C(C(N)=O)=C(O)[C@@]2(O)C(=O)C3=C(O)c4c(O)cccc4[C@](C)(O)C3C(O)C12 (stereo partly specified)
    ·	2
NP(N)(=O)NC(=O)c1ccc(F)cc1
    ·	-5
CCCn1c(=O)c2[nH]c(C3CCCC3)nc2n(CCCOC(=O)c2ccc(S(=O)(=O)F)cc2)c1=O
    ·	-3
CN1[C@@H](C[C@@H](O)c2ccccc2)CCC[C@@H]1C[C@H](O)c1ccccc1
    ·	3
CC[N+](CC)(CCCNC1=CC(=O)C(NCCC[N+](CC)(CC)Cc2ccccc2)=CC1=O)Cc1ccccc1
    ·	-14
N[C@H]1C[C@H]1c1ccccc1
    ·	-2
Clc1ccc(C2CC3CCC2N3)cn1 (stereo unspecified)
    ·	5
CC1C(=O)OC2C(O)C34C5OC(=O)[C@@]3(OC3OC(=O)[C@H](O)[C@]34C(C(C)(C)C)C5O)[C@]12O (stereo partly specified)
    ·	4
Cc1nn(C)c(C)c1-c1cccc2c1CCC(N(C)C)C2 (stereo unspecified)
    ·	-10
CN1C2CC(OC(=O)C(CO)c3ccccc3)CC1C(O)C2 (stereo unspecified)
    ·	8
CC(=O)N1CC[N+](C)(C)CC1
    ·	-1
O=C1C=C2C(=CCOC2O)O1 (stereo unspecified)
    ·	7
CCN1C[C@@]2(COC)[C@H]3[C@@H](OC)[C@H]4C1[C@@]3([C@H](OC)C[C@@H]2O)[C@H]1C[C@@]2(O)[C@@H](OC(=O)c3ccccc3)[C@@H]1[C@@]4(OC(C)=O)[C@H](O)[C@@H]2OC
    ·	2
CCCCCCCCCCCCCCCC(=O)OC[C@H](COP(=O)([O-])OCC[N+](C)(C)C)OC(C)=O
    ·	-2
C[C@H]1O[C@@H](O[C@H]2[C@@H](O)C[C@H](O[C@H]3[C@@H](O)C[C@H](O[C@H]4CC[C@]5(C)C6CC[C@]7(C)[C@@H](C8=CC(=O)OC8)CC[C@]7(O)C6CC[C@@H]5C4)O[C@@H]3C)O[C@@H]2C)C[C@H](O)[C@@H]1O (stereo partly specified)
    ·	-8
CCOC(=O)c1ccc(NC(=O)Nc2cc3c(cc2N2CCCCC2)n(CC)c(=O)n3CC)cc1
    ?	·
COc1ccc(C(=O)NCCn2cc(SC(C)c3ccccc3)c3ccccc32)cc1OC (stereo unspecified)
    ?	·

The line under a structure holds: miR-21 FLuc	GLA inh pH 4.5
N#Cc1cc([N+](=O)[O-])ccc1NC(=O)c1cccn(Cc2cccc(F)c2)c1=O
    0%	·
COc1ccc(NC(=O)c2oc3ccc(S(=O)(=O)N(C)C4CCCCC4)cc3c2C)cc1
    ?	·
O=c1c2ccccc2nc(/C=C/c2cccc3ccccc23)n1-c1ccc(Cl)cc1
    -8%	·
CCCC12CN3CC(C)(CN(C1)C3c1ccccn1)C2=O (stereo unspecified)
    5%	·
CSc1ccc(/C=C/c2nc3ccccc3c(=O)n2-c2cccc(Cl)c2C)cc1
    7%	·
O=C(Nc1ccc(Br)cc1C(=O)c1ccccc1Cl)c1ccc(Br)cc1
    -2%	·
Cc1cccc(-n2c(CC3C(=O)Nc4ccc(C)cc43)nc3ccccc3c2=O)c1 (stereo unspecified)
    8%	·
CC(C)(C)c1ccc(C(=O)Nc2ccc(Cl)cc2C(=O)c2ccccc2)cc1
    -3%	·
NCCc1c[nH]c2ccc(F)cc12
    0%	·
O=C(NCCOc1cccnc1)c1ccc(OC2CCN(Cc3ccccn3)CC2)cc1
    ?	·
CCc1ccc(-n2nc(C)c3c2NC(=O)CSC3c2ccc(OC)cc2OC)cc1 (stereo unspecified)
    10%	·
CCC(C(=O)Nc1ccccc1F)N1C(=O)CN=C(c2ccccc2)c2ccccc21 (stereo unspecified)
    30%	·
COc1ccc(OCC(=O)N2CCN(CCc3ccncc3)CC2)cc1
    -8%	·
Cc1nnc(NC(=O)c2cccn(Cc3ccccc3F)c2=O)s1
    -8%	·
O=C1C=Cc2ccccc2C1=O
    -40%	·
Cc1cccc(OC(C)C(=O)NCC2(N(C)C)CCCCC2)c1C (stereo unspecified)
    2%	·
COc1ccc(/C=C/C(=O)Nc2ccc(C)cc2)cc1
    -35%	·
CCOC(=O)N1CCN(C(=O)Cn2ncc3c4ccccc4n(Cc4ccc(F)cc4)c3c2=O)CC1
    ?	·
Nc1c(C(=O)Nc2ccc(Cl)c(C(F)(F)F)c2)sc2nc3c(cc12)N1CCC3CC1
    ?	·
Cc1ccc(NC(=O)CN2C(=O)CN=C(c3ccccc3)c3ccccc32)cc1
    6%	·
Cc1ccc(-n2c(/C=C\c3ccc(F)c(F)c3)nc3ccccc3c2=O)c(C)c1
    5%	·
Cc1ccc(-n2c(/C=C\c3ccc(F)cc3)nc3ccccc3c2=O)cc1Cl
    0%	·
CCSc1nnc(NC(=O)c2cccn(Cc3ccccc3Cl)c2=O)s1
    -3%	·
COc1cccc(C2SCC(=O)Nc3c2c(C)nn3-c2ccc(C)c(Cl)c2)c1OC (stereo unspecified)
    -14%	·
Nc1c(C(=O)Nc2ccc(F)c(Cl)c2)sc2nc3c(cc12)N1CCC3CC1
    ?	·
Cc1cccc(Cn2cccc(C(=O)Nc3ccc(F)cc3F)c2=O)c1
    7%	·
Cc1cc(-c2nc3ncccc3o2)ccc1NC(=O)c1ccccc1Br
    -32%	·

Profiles, quoted from the list. Order of screens: miR-21 FLuc	GLA inh pH 4.5
Cc1ccc(NC(=O)CN2C(=O)CN=C(c3ccccc3)c3ccccc32)cc1 in the list: 6%	·
CCC(C(=O)Nc1ccccc1F)N1C(=O)CN=C(c2ccccc2)c2ccccc21 (stereo unspecified) in the list: 30%	·
O=c1c2ccccc2nc(/C=C/c2cccc3ccccc23)n1-c1ccc(Cl)cc1 in the list: -8%	·
